# Source: PubChem
# KAT2A inh: qHTS Assay for Inhibitors of GCN5L2; Potency, µM (titrated, usually from 58.9 µM), inactives show at the highest dose activity change, negative = inhibition, most hits filed as inhibitors; hit rate 0.21% among 390,000; Histone acetyltransferase KAT2A (Homo sapiens), Q92830; GCN5L2 HAT assay, ThioGlo1 CoA-SH fluorescence
# Target sequence (Q92830 whole entry, looked up): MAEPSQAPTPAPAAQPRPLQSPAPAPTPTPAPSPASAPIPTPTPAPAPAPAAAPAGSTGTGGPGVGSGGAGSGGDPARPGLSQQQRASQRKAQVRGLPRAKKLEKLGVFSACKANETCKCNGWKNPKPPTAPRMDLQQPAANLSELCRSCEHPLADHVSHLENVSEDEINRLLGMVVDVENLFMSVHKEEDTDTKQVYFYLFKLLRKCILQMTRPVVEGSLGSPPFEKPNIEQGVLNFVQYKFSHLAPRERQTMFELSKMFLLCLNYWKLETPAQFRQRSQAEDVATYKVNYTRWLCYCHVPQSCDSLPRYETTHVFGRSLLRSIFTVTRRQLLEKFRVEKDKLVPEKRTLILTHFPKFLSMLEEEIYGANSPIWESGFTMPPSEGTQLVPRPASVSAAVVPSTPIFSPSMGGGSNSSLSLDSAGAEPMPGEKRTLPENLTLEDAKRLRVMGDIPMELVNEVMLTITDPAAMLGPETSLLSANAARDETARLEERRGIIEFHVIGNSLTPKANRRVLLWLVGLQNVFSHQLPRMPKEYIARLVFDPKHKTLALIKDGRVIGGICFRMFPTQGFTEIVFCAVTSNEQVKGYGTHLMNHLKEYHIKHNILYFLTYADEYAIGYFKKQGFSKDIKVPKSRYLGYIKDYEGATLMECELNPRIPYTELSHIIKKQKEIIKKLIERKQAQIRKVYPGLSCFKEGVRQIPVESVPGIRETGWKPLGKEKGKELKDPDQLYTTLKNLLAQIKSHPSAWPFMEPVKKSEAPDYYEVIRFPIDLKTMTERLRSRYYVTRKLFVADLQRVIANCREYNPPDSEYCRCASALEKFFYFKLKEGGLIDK
#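 GCN5L2 (20 nM) in 50mM HEPES pH 7.5, 0.1mM EDTA, 0.01% Tween-20 preincubated 15 min with compounds at room temperature. Reaction started with H3(1-25) 75uM, acetyl-CoA 70uM, ThioGlo1 50uM; CoA-thiol fluorescence (Ex340/Em540) read at 0 and 20 min.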
# DT40 TDP1 CPT: qHTS for Inhibitors of human tyrosyl-DNA phosphodiesterase 1 (TDP1): qHTS in cells in presence of CPT; chicken DT40 Tdp1-/-;hTDP1 cells + 20 nM CPT, ATP luminescence, 48 h; Potency, µM (highest dose often 46.2 µM), for the others: at the highest dose activity change, negative = growth inhibition, hits mostly inhibitors; hit rate 12% among 420,000; further: nearly all actives have a fitted effect of over 55% in size
#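 Chicken DT40 Tdp1-/- cells stably complemented with human TDP1 were seeded at 400 cells/well in medium containing 20 nM camptothecin, exposed to pin-transferred compounds, and grown at 37 °C for at least 48 hr. Viability was read as ATP luminescence.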
# Numbers without * were called inactive; u = inconclusive; x = no result given; & = joins results of further samples; [ ] = another dose, or the depositor's remark. The call rests on the fitted dose curve; in most records, active means well fitted curve in the direction sought with a large enough effect; inconclusive means small, poorly fitted or top-dose-only effect, or another doubt; inactive means no such curve, though single readings can be large; an effect the other way counts as inactive or inconclusive. On the % scale 0 is the no-effect control and ±100 the full control effect; potency means the concentration at half of the fitted maximal effect. This is a subset, and most or all hits are left out here.
# Under each structure – KAT2A inh | DT40 TDP1 CPT
O=C(Nc1ccc(C(F)(F)F)cc1)N1CCN(c2ccnc3cc(Cl)ccc23)CC1
  -8.2% | 23.1µM*
O=C(NCc1ccccn1)c1cn(Cc2ccccc2)nn1
  -1.5% | -2.2%
Cc1ccc(NC(=O)c2nc[nH]c2C(=O)N2CCc3ccccc3C2)cc1
  0.7% | -24.8%
Cc1nc2cc(Cl)c(Cl)cc2nc1C
  0.6% | -23.3%
Cc1ccccc1CN1CCN(CC(=O)NCc2ccccn2)C1=O
  -10.0% | 7.3%
CCOC(=O)N1CCC(NC(=O)CCN2C(=O)C3C4C=CC(C4)C3C2=O)CC1 (stereo unspecified)
  -5.7% | -3.6%
C=CCSc1ccc(S(=O)(=O)N2CCN(C)CC2)cn1
  -15.2% | 1.0%
O=C(CCOc1ccccc1)N(Cc1cccnc1)c1nc2ccc(Cl)cc2s1
  -15.8% | u
CC[C@@]1(C(=O)OC)N[C@H](CN(C)C(=O)Nc2ccc(F)cc2)[C@@H]2C(=O)N(Cc3ccccc3)C(=O)[C@@H]21
  -3.0% | -26.9%
CSCCC(NC(=O)CCNC(=O)c1ccccc1Cl)c1nc2ccccc2[nH]1 (stereo unspecified)
  -5.8% | -11.4%
O=[N+]([O-])c1cccc(S(=O)(=O)N/N=C/c2ccc(O)cc2)c1
  -5.8% | -0.6%
COCC(=O)Nc1ccc(N2CCN(c3ccccc3)CC2)c(F)c1
  -0.6% | -12.3%
O=Cc1ccc(OCC(=O)N2CCOCC2)cc1
  1.0% | 14.2%
COc1ccc(-c2ccc(=O)n(CC(=O)Nc3nnc(C(C)C)s3)n2)cc1OC
  -13.5% | -9.8%
Cc1ccc(C(=O)CCC(=O)OCC(=O)N(CC(C)C)c2c(N)n(Cc3ccccc3)c(=O)[nH]c2=O)cc1
  -2.3% | -4.5%
COc1ccccc1CNC(=O)C1CCC(CNS(=O)(=O)c2ccc(NC(C)=O)cc2)CC1 (stereo unspecified)
  32.0% | -25.1%
CCOc1cc(N2CCOCC2)c(OCC)cc1NC(=O)c1ccc(C)cc1
  -10.0% | u
COC(=O)CN1C(=O)C(O)(CC(=O)c2ccc(C)cc2)c2cc(Br)ccc21 (stereo unspecified)
  -13.7% | u
Cc1cc(C(F)(F)F)nn1CC(=O)NCc1cccs1
  11.9% | -13.3%
CC12CCC(=O)N1C(C(=O)N1CCN(S(=O)(=O)c3ccc(F)c(F)c3)CC1)CS2 (stereo unspecified)
  -6.3% | 4.1%
CC1=C(C(=O)OCc2ccccc2)C(c2ccoc2)C(C#N)=C(N)O1 (stereo unspecified)
  3.6% | u
Cn1c(SCc2ccccc2)nnc1-c1c[nH]c2ccccc12
  -2.5% | u
Cc1ccc(NC(=O)/C(=C\c2cccs2)NC(=O)c2ccccc2)cc1
  2.5% | 25.6%
COc1ccccc1CNS(=O)(=O)c1c(C)nc2sccn2c1=O
  u | 10.2%&-10.3%
CC1=C(C(=O)OCC2CCCCC2)C(c2ccccc2F)CC(=O)N1 (stereo unspecified)
  -2.1% | u
C=CCn1c(Oc2ccccc2F)nc2c1c(=O)n(C)c(=O)n2C
  -2.7% | u
Cc1nc2c(S(=O)(=O)c3ccccc3)cnn2c(C)c1C
  -5.9% | -9.2%
Nc1ncnc2c1ncn2[C@@H]1O[C@H](CO)C[C@@H]1O
  1.6% | x
COc1ccc(S(=O)(=O)Nc2ccc3c(c2)C(=O)N([C@H](C)CO)C[C@H](C)[C@@H](CN(C)S(=O)(=O)c2cccs2)O3)cc1
  -11.7% | u
O=C(CCNS(=O)(=O)c1ccc(Br)cc1)NCc1ccco1
  0.6% | -0.3%

# One compound at a time, from the list above. Order of screens: KAT2A inh | DT40 TDP1 CPT
# Cc1ccc(NC(=O)c2nc[nH]c2C(=O)N2CCc3ccccc3C2)cc1 is listed as 0.7% | -24.8%
# CCOC(=O)N1CCC(NC(=O)CCN2C(=O)C3C4C=CC(C4)C3C2=O)CC1 (stereo unspecified) is listed as -5.7% | -3.6%
# COc1ccc(-c2ccc(=O)n(CC(=O)Nc3nnc(C(C)C)s3)n2)cc1OC is listed as -13.5% | -9.8%
# Cc1nc2c(S(=O)(=O)c3ccccc3)cnn2c(C)c1C is listed as -5.9% | -9.2%

# (list continues)
# Under each structure – KAT2A inh | DT40 TDP1 CPT
CC(C)OC(=O)Cc1nc2sc(-c3ccccc3)cc2c(=O)[nH]1
  -14.5% | u
CCCSc1nsc(SCCC)c1C#N
  -4.2% | -25.5%
CCN(CC)CCCn1c2c(c(SCC(=O)Nc3ccc4c(c3)OCCO4)nc1=O)CCC2
  -3.1% | u
O=C(CNC(=O)c1ccc(Cl)cc1Cl)OCc1nnc(-c2ccccc2)o1
  1.5% | 13.8%
CNc1ccccc1C(=O)OC(C)C(=O)Nc1ccc(S(=O)(=O)N2CCCC2)cc1 (stereo unspecified)
  -3.9% | u
COCC(C)n1c(SCC(=O)NCCC2=CCCCC2)nc2ccccc2c1=O (stereo unspecified)
  -2.0% | u
O=C(C1CCN(c2nnc(N3CCCC3=O)s2)CC1)N1CCN(Cc2ccc3c(c2)OCO3)CC1
  -1.9% | 1.7%
COc1cc(/C=C/C(=O)OCC(=O)NC2CC2)cc(S(=O)(=O)N2CCc3ccccc32)c1OC
  -9.1% | 1.6%
CC(C)(C)c1ccc(C(=O)NCc2ccc(Cl)cc2)cc1
  8.5% | -15.3%
CCN(CC)CC(=O)NC12CC3CC(CC(C3)C1)C2
  2.9% | -25.1%
Cc1ccc2c(c1)N(S(=O)(=O)c1ccc(CN3C(=O)c4cccnc4C3=O)cc1)CCO2
  -4.4% | -4.1%
COc1cccc(CNC(=O)CCNC(=O)Cn2ccc3ccccc3c2=O)c1
  5.4% | -18.9%
Cc1cc(C(=O)CN2C(=O)C(=O)N(Cc3ccco3)C2=O)c(C)n1CCc1ccc(F)cc1
  0.7% | 20.6µM*
Cc1ccc(NS(=O)(=O)c2cccc(C(=O)NCC3CCCO3)c2)cc1 (stereo unspecified)
  2.5% | -16.8%
S=C1N(c2ccccc2)C(c2ccc(Br)cc2)N2CCCN12 (stereo unspecified)
  -5.8% | -19.3%
Cc1ccc(C(=O)NCCNC(=O)c2ccc(F)cc2)cn1
  -1.3% | 1.8%
CCc1ccc(CNCc2cccnc2)cc1
  -3.3% | -0.5%
COc1ccc(NCc2nnc(SCC(=O)Nc3cc(C)cc(C)c3)o2)cc1
  -6.5% | -1.6%
COc1ccc(N2C3=[N+](CCCC3)CC2(C)O)cc1 (stereo unspecified)
  u | 4.11µM*
O=C(c1ccccc1Oc1ccccc1)N1CCN(c2ccccc2F)CC1
  -6.3% | 18.4µM*
Cc1ccc(CN2CCN(Cc3cn[nH]c3-c3ccccc3)CC2CCO)o1 (stereo unspecified)
  -4.7% | 2.6%
COc1ccc(CN(C)C(=O)C(Cc2ccccc2)NC(=O)c2ccccc2)c(OC)c1 (stereo unspecified)
  -0.9% | u
COc1ccc(NC(=S)N2CCN(C(=O)c3ccco3)CC2)c(OC)c1
  -0.7% | -6.7%
O=C(COC(=O)CNC(=O)c1ccc(Br)cc1)NCCC1=CCCCC1
  -20.3% | -23.3%
C[C@H](NC(=O)c1nc[nH]c1C(=O)NCC(=O)OC(C)(C)C)c1ccccc1
  -3.0% | 19.7%
CCN(CC(=O)Nc1ccc(NC(C)=O)cc1)C(=O)CSc1nnc(-c2ccco2)n1CC
  -6.5% | -2.8%
CC1=C(C(=O)Nc2ccccc2)C(c2ccc(C)o2)n2ncnc2N1 (stereo unspecified)
  -3.1% | 5.9%
CSc1ccccc1C(=O)Nc1nc2ccccc2c(=O)[nH]1
  -0.2% | -30.4%
O=C(NCCN1CCCC(O)C1)c1cc(COc2c(F)cccc2F)on1 (stereo unspecified)
  -4.2% | -2.6%
CCC(=NC1CC(C)(C)NC(C)(C)C1)C1=C(O)CC(C)(C)CC1=O
  -1.6% | -10.4%

# Next section:
# Under each structure – KAT2A inh | DT40 TDP1 CPT
CC(C)S(=O)(=O)c1nsc2nc(=O)c(/C=C3\C=Nc4ccccc43)c(N)n12
  -5.9% | -10.9%
CCOC(=O)c1ccccc1NC(=O)CN1CCC(n2nnc3cc(F)ccc32)CC1
  x | -22.1%
Cc1csc2nc(O)c(C(=O)NC3CCCCC3)c(=O)n12
  0.4% | u
c1coc(-c2nnc(SCc3nc4ccccc4[nH]3)o2)c1
  -1.7% | -14.1%
CCSc1nnc(NC(=O)c2cc(OC)c(OC)c(OC)c2)s1
  -5.9% | 1.8%
C[C@H](CO)N1C[C@H](C)[C@@H](CN(C)Cc2ccc(Cl)c(Cl)c2)Oc2ccc(NC(=O)Cn3cnnn3)cc2C1=O
  -2.6% | u
COc1ccc(OCc2cc(C(=O)NC(C)c3csc(C)n3)no2)c(Cl)c1 (stereo unspecified)
  -1.4% | u
CCC1SC2=NC(C)=C(C(=O)OC)C(c3ccc(C)cc3)N2C1=O (stereo unspecified)
  1.7% | 4.2%
Cc1ccccc1-n1c(SCc2c(C)noc2C)nnc1-c1ccncc1
  1.7% | -5.5%
O=C(NCCCN1CCOCC1)C(=O)NCC1OCCN1S(=O)(=O)c1ccc(F)cc1 (stereo unspecified)
  -1.0% | -2.8%
CCC1CCC(C(=O)NC(CCSC)C(=O)NCCN(CC(C)C)CC(C)C)CC1 (stereo unspecified)
  -3.5% | u
COc1cc(OC)cc(C(=O)N[C@H](C(=O)OCC(=O)Nc2ccc(C)cc2C)C(C)C)c1
  -2.2% | -14.6%
CCc1ccc[n+](-c2[nH]c(=O)sc2/C=N/N=C(\N)[O-])c1
  -18.0% | -5.3%
CC(C)[C@@H](C(=O)N[C@@H](Cc1ccccc1)C(=O)O)N1C(=O)N2CCc3c([nH]c4ccccc34)[C@@]2(C)C1=O
  -18.3% | 7.8%
Cc1n[nH]c(=S)n1/N=C/c1cccc(OCc2ccccc2)c1
  -29.0% | -6.5%
CN(C(=O)CSc1nc(-c2ccccc2)cs1)C1CCS(=O)(=O)C1 (stereo unspecified)
  0.2% | -11.9%
Cc1cc(C(=O)NC2CCCC2)on1
  -5.7% | 1.2%
Cc1ccc(NC(=O)c2cccc(C(=O)OC(C)C)n2)c(Br)c1
  -10.1% | -18.5%
Cc1ccc(CNC(=O)CN(c2cc(C)cc(C)c2)S(=O)(=O)c2c(C)[nH]c(=O)[nH]c2=O)cc1
  -0.6% | 0.3%
Cc1ccc(NC(=O)CSc2nnc(Cc3ccccc3)o2)cc1
  -10.0% | 2.9%
COc1ccc(-c2nc(N)nc(C(F)(F)F)c2-c2csc(C)n2)c(O)c1
  -3.1% | -4.5%
CCN(CC)P(=O)(C(NC(=O)OC)C(F)(F)C(F)(F)C(F)(F)C(F)F)N(CC)CC (stereo unspecified)
  -5.2% | -15.5%
CCOCc1c(C(=O)Nc2ccc3nc(N4CCOCC4)sc3c2)oc2ccccc12
  -7.1% | 20.6µM*
COC(=O)c1c[nH]n2c(=O)c(C(C)C)c(C)nc12
  2.8% | -7.0%
COc1cc(C2C(C(C)=O)=C(C)Nc3ncnn32)ccc1O (stereo unspecified)
  -3.7% | -0.6%
O=C(OCn1nnc2ccccc2c1=O)c1ccc(S(=O)(=O)N2CCOCC2)cc1
  -19.1%[0.501 µM] | -12.5%
O=C(NCc1ccc2c(c1)OCO2)c1cccc(F)c1
  -2.8% | 11.7%
C=CCOc1c2ccc(C(=O)NCc3ccc(OC)cc3)cc2nn1C
  u | -0.1%
Cc1c(NC(=O)C(C)OC(=O)COc2ccccc2)c(=O)n(-c2ccccc2)n1C (stereo unspecified)
  0.7% | 18.7%
N/C(=N\OC(=O)c1ccccc1Cl)c1cccnc1
  -4.6% | 4.2%

# (list continues)
# Under each structure – KAT2A inh | DT40 TDP1 CPT
COc1ccc(-c2nnc(SC3CCOC3=O)n2C2CCCCC2)cc1OC (stereo unspecified)
  -0.1% | 4.5%
Cc1cc(C2=NNC(=NCCc3ccccc3)SC2)c(C)n1-c1c(C)n(C)n(-c2ccccc2)c1=O
  -1.7% | -6.1%
CCC(NC(=O)c1[nH]c(C)c(C(C)=O)c1C)c1ccc(Br)cc1 (stereo unspecified)
  -7.8% | u
COc1cc(-c2nnc(SCC(=O)O)n2-c2ccccc2)cc(OC)c1OC
  -4.5% | -4.8%
COc1ccc2[nH]cc(C(=O)C(=O)N3CCCCC3)c2c1
  1.6% | -10.5%
CN1CCN(C(=O)c2cc(COc3ccccc3)on2)[C@@H](c2ccccc2)C1
  -7.5% | -29.2%
C#CCNC(=O)C1=C[C@@H](c2ccc(Br)cc2)C[C@@H](OCc2ccc(CO)cc2)O1
  -5.0% | u
CN(CC(=O)Nc1cccc(F)c1)CC(=O)Nc1ccccc1-c1ccccc1
  -8.0% | u
C(=N\NC(=Nc1ccccc1)c1ccccn1)/c1ccccn1
  -3.3% | 10.3µM*
Cc1c([N+](=O)[O-])cc(C(=O)NCc2ccc(F)cc2)cc1[N+](=O)[O-]
  -6.6% | -2.1%
COc1ccc(-n2nc(C(=O)NCC(=O)N3CCCC(C)C3)c3ccccc3c2=O)cc1 (stereo unspecified)
  -21.0% | -14.1%
COc1ccccc1N(C(=O)c1snc(C(N)=O)c1N)C(C(=O)NCc1ccccc1)c1ccc(O)cc1 (stereo unspecified)
  -7.5% | -7.2%
